Compound activity from PubChem.
HIV TAR-Tat – TAR RNA-Tat peptide displacers, HIV-1, primary screen, biochemical, FRET, FAM/TAMRA-labeled Tat. z-score (test concentration not listed). HIV-1 TAR RNA, Tat peptide displacement FRET; hits give high values. 100,000 compounds, 0.6% hits. AID 1259389, 2018;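 note: score is relative to mean and SD of negative controls; some compounds called inactive have numbers as strong as hits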
CDC25B CDK2 inh – primary biochemical HTRF screen for blockers of M-phase inducer phosphatase 2 binding to CDK2/cyclin A | z-score (test concentration not listed) | HTRF CDC25B-CDK2/CyclinA binding, anti-His/anti-Flag; hits give high values | 94,000 compounds, 0.72% hits | P30305+P24941;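 note: score is relative to mean and SD of negative controls; strong numbers were not always called active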
* hit, by the source's call; / = no result given.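 Rule for the calls: active = z-score from 3 up in half or more of its runs; inactive = the rest.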

Preview (18 entries):
SMILES | HIV TAR-Tat | CDC25B CDK2 inh
Cc1nc2ccc(S(=O)(=O)N(C)CC(=O)Nc3nc4ccc(Cl)cc4s3)cc2s1 | 0.98 | -0.86
Cc1nc2nncn2c(NCc2ccc(F)cc2)c1C | 0.81 | -1.86
CCOC(=O)c1c(NC(=O)CN2CCC(C)CC2)sc2c1CCC(C)C2 (centres undefined) | / | 1.41
Cc1onc(-c2ccc(Br)cc2)c1C(=O)O | -0.61 | -1.2
O=C(COC(=O)C1C2CCC(C2)C1C(=O)c1ccccc1)c1ccc(Cl)cc1 (centres undefined) | -0.46 | -1.78
CCN(CC)CCCn1c(-c2ccc(OC)cc2)cn2c3ccccc3nc12 | / | -0.76
COC(=O)C1=C(C)NC2=C(C(=O)c3ccccc32)C1c1ccccc1OCc1cccc(F)c1 (centres undefined) | 0.66 | -1.1
c1ccc2[nH]c(SCc3ccncc3)nc2c1 | 0.55 | -0.37
CCc1nnc(NC(=O)CSc2nc(SC)ns2)s1 | -0.17 | -1.91
CC(C)OCCCN(C)C1CCN(S(=O)(=O)c2ccc3c(c2)CCCC(=O)N3)CC1 | 1.68 | /
COc1ccc(CN2CCN(C(=O)c3ccc(-c4ccccc4)cc3)CC2)c(OC)c1 | / | -0.18
O=C(NCCc1c[nH]c2ccccc12)C(=O)NCC1CCCO1 (centres undefined) | 0.38 | -0.51
O=C(CSc1nnc2scc(-c3ccccc3)n12)c1ccccc1 | 0.45 | 1.11
CC(C)OC(=O)C1C2C=CC3(CN(Cc4ccco4)C(=O)C13)O2 (centres undefined) | 0.19 | -0.54
CC1(C)CC(/C=C/c2ccccc2)=Nc2ccccc2N1 | -5.86 | -1.05
O=C(O)C1=CC(c2ccsc2)n2nnnc2N1 (centres undefined) | -1.07 | /
COc1ccc(C2=NOC(C(=O)N3CCCC3)C2)cc1OC (centres undefined) | 0.85 | 0.09
O=S(=O)(c1cccs1)N1CCN(c2cccc(Cl)c2)CC1 | -0.48 | -1.32

All compounds of this part, repeating the preview:
SMILES | HIV TAR-Tat | CDC25B CDK2 inh
Cc1nc2ccc(S(=O)(=O)N(C)CC(=O)Nc3nc4ccc(Cl)cc4s3)cc2s1 | 0.98 | -0.86
Cc1nc2nncn2c(NCc2ccc(F)cc2)c1C | 0.81 | -1.86
CCOC(=O)c1c(NC(=O)CN2CCC(C)CC2)sc2c1CCC(C)C2 (centres undefined) | / | 1.41
Cc1onc(-c2ccc(Br)cc2)c1C(=O)O | -0.61 | -1.2
O=C(COC(=O)C1C2CCC(C2)C1C(=O)c1ccccc1)c1ccc(Cl)cc1 (centres undefined) | -0.46 | -1.78
CCN(CC)CCCn1c(-c2ccc(OC)cc2)cn2c3ccccc3nc12 | / | -0.76
COC(=O)C1=C(C)NC2=C(C(=O)c3ccccc32)C1c1ccccc1OCc1cccc(F)c1 (centres undefined) | 0.66 | -1.1
c1ccc2[nH]c(SCc3ccncc3)nc2c1 | 0.55 | -0.37
CCc1nnc(NC(=O)CSc2nc(SC)ns2)s1 | -0.17 | -1.91
CC(C)OCCCN(C)C1CCN(S(=O)(=O)c2ccc3c(c2)CCCC(=O)N3)CC1 | 1.68 | /
COc1ccc(CN2CCN(C(=O)c3ccc(-c4ccccc4)cc3)CC2)c(OC)c1 | / | -0.18
O=C(NCCc1c[nH]c2ccccc12)C(=O)NCC1CCCO1 (centres undefined) | 0.38 | -0.51
O=C(CSc1nnc2scc(-c3ccccc3)n12)c1ccccc1 | 0.45 | 1.11
CC(C)OC(=O)C1C2C=CC3(CN(Cc4ccco4)C(=O)C13)O2 (centres undefined) | 0.19 | -0.54
CC1(C)CC(/C=C/c2ccccc2)=Nc2ccccc2N1 | -5.86 | -1.05
O=C(O)C1=CC(c2ccsc2)n2nnnc2N1 (centres undefined) | -1.07 | /
COc1ccc(C2=NOC(C(=O)N3CCCC3)C2)cc1OC (centres undefined) | 0.85 | 0.09
O=S(=O)(c1cccs1)N1CCN(c2cccc(Cl)c2)CC1 | -0.48 | -1.32
COC(=O)c1ccc(NC(=O)Cn2nc3c4scc(-c5ccc(F)cc5)c4ncn3c2=O)cc1 | 2.3 | /
CSc1ccccc1NC(=O)CCSc1nc(-c2ccco2)cc(C(F)(F)F)n1 | 2.2 | -2.21
c1ccc(-c2cn(-c3ccccc3)c3ncnc(NCc4cccs4)c23)cc1 | 2.83 | /
Cc1c(-c2ccccc2)nc2sc3c(c2c1N)CCCC3 | -0.73 | -0.68
O=C(CC1SC(=O)NC1=O)Nc1ccc(C(=O)O)cc1 (centres undefined) | 0.34 | 0.37
CC1=C(C(=O)OC2CCCC2)C(c2ccccc2C)C2=C(CC(C)(C)CC2=O)N1 (centres undefined) | 0.69 | -2.41
Cc1ccc(-n2ncc3c(NCc4ccc5c(c4)OCO5)ncnc32)cc1C | 1.27 | /
Next section:
SMILES | HIV TAR-Tat | CDC25B CDK2 inh
Cc1ccc(N2C(=O)CN=C2Nc2nc(C)cc(C)n2)c(C)c1 | / | -1.78
CCOC(=O)c1c(S(=O)(=O)NC(C)(C)CC)c(C)n(C)c1C | 0.26 | /
CC(=O)N1c2ccccc2CC1C(=O)N1CCCCC1 (centres undefined) | 1 | /
Cc1cc(C)n2nc(CNS(=O)(=O)c3ccc(C)c(C)c3)nc2n1 | -0.48 | -0.03
CCCN1C(=O)C2(c3ccccc31)c1c(oc3cc(C)c(C)cc3c1=O)C(=O)N2CCO (centres undefined) | 0.08 | -1.81
COc1ccc(N2C(=O)C3ON(c4ccccc4)C(c4ccccc4O)C3(C)C2=O)cc1 (centres undefined) | 0.61 | 0.16
CCCN(CCC)CCNC(=O)c1cc2c(s1)-c1ccc(Cl)cc1S(=O)(=O)C2 | 1.52 | -0.81
O=C(Nc1nc2ccc(S(=O)(=O)N3CCCC3)cc2s1)c1cccs1 | 0.12 | /
O=C(Nc1ccccn1)c1cc(-c2cccs2)on1 | -0.33 | -0.96
COC(=O)c1sc(=S)n(-c2cc(C)ccc2C)c1N | 0.82 | /
COc1ccc(S(=O)(=O)c2cc3c(cc2N)n(C)c(=O)n3C)cc1 | 0.35 | /
COc1ccc(S(=O)(=O)N2CCN(c3cc(N4CCCCC4)nc(C)n3)CC2)cc1C | 0.48 | -2.1
CC(C)NC(=O)CCC(=O)N1CC(C)Sc2ccccc21 (centres undefined) | 0.75 | /
CCCCc1nn2cc(-c3ccc(C)cc3C)nc2s1 | 1.28 | 0.75
C/C(=N\N=C1\NC(=O)C(CC(=O)O)S1)c1ccccn1 (centres undefined) | / | -2.48
O=C(Nc1ccc(F)cc1)c1cnn(-c2ccccc2)c1-n1cccc1 | 1.46 | -1.54
CC(CC(=O)O)Cc1nnc2c(=O)n(-c3cccc(F)c3)ccn12 (centres undefined) | 1.16 | -1.93
CCOC(=O)N1CCc2c(sc(NC(=O)CSc3nnc(-c4ccco4)o3)c2C#N)C1 | / | -0.52
Cc1[nH]c(=O)c(C#N)cc1C(=O)CSc1cccc(F)c1 | / | -2.02
O=S(=O)(Nc1ccc(O)c(-c2c(O)ccc3ccccc23)c1)c1ccc(Cl)cc1 | 0.14 | -2.2
CCN(CC)CCOC(=O)c1cnn2c(C(F)(F)F)cc(-c3ccc(C)cc3)nc12 | 2.19 | 0.04
Cc1cc(NCCCCO)n2c(nc3ccccc32)c1C#N | -7.28 | -2.59
CN(C(=O)C1CCC1C(=O)O)c1nc(-c2ccc(Cl)s2)cs1 (centres undefined) | / | -2.06
CS(=O)(=O)Nc1ccc2nc(-c3cccc(Cl)c3)oc2c1 | 1.41 | -1.14
COc1ccc2ncc(S(=O)(=O)c3ccc(C)cc3)c(Nc3ccc4c(c3)OCCO4)c2c1 | -0.42 | -0.74
Further structures:
SMILES | HIV TAR-Tat | CDC25B CDK2 inh
O=C(CSc1nc2c(c(=O)[nH]1)CCCC2)Nc1ccccc1Cl | 0.06 | -1.71
Cn1c(=O)cc(SCC(=O)N2CCCC2)c2ccccc21 | / | -1
CC1CCCCC1NC(=O)C1CCN(S(=O)(=O)c2ccc3c(c2)oc(=O)n3C)CC1 (centres undefined) | / | -0.27
C=C1/C(=C\C=C2/CCC[C@]3(C)[C@@H]([C@H](C)CCCC(C)(C)O)CC[C@@H]23)C[C@@H](O)C[C@@H]1O | 0.89 | /
Brc1ccc(CNCCCSc2nnnn2-c2ccccc2)cc1 | 1.78 | -1.21
CCCCNC(=O)CCc1c(C)[nH]n(-c2nc(C)c(C)s2)c1=O | -0.79 | -1.16
CC1CCCC(NC(=O)Cn2ncc3c4ccccc4n(C)c3c2=O)C1C (centres undefined) | 0.12 | 0.05
O=C(NC1CCCCC1)C1CCN(c2nnc(N3CCCC3=O)s2)CC1 | 2.5 | -2.21
Cc1noc(C)c1Cc1ccc(C(=O)NCCc2cccs2)o1 | 0.89 | /
CCc1ccc(NS(=O)(=O)c2c(C)noc2C)cc1 | -0.07 | -2.76
CCOc1ccccc1-c1noc(CSc2nnc(C)n2-c2ccc(CC)cc2)n1 | 0.9 | 0.87
Cc1ccc2onc(CNC(=O)N(C)C3CCCCC3)c2c1 | 1.56 | /
COc1cccc(C(=O)CSc2nsc(SCC(=O)c3cccc(OC)c3)c2C#N)c1 | / | -1.78
Nc1nc2c(c(C(F)(F)F)n1)CCc1ccccc1-2 | / | -2.28
CCOC(=O)N1CCN(c2c(NCCN3CCCCC3C)c(=O)c2=O)CC1 (centres undefined) | 0.15 | -0.4
CCn1c(N2CCC(C(=O)O)CC2)cc(=O)n(C)c1=O | 0.5 | -0.83
CO[C@@H]1[C@H](OC(=O)/C=C/C=C/C=C/C=C/C(=O)O)CC[C@]2(CO2)[C@H]1[C@@]1(C)OC1CC=C(C)C (some centres undefined) | -0.05 | /
Cc1onc(-c2ccccc2)c1C(=O)/C=C/N(C)C | / | -1.69
Cc1cccc(Oc2coc3cc(OC(C)C(=O)OC(C)C)ccc3c2=O)c1 (centres undefined) | / | -0.44
CCNC(=O)N1c2c(C)cc(C)cc2C(C)=CC1(C)C | 0.99 | -2.47
S=C(NCc1cccs1)NC1CC1 | / | -2.95
CC1CCN(c2ccc3nnc(CCC(=O)N4CCN(c5ccc(F)cc5)CC4)n3n2)CC1 | -0.7 | /
O=C1O[C@@H]2C(Cl)[C@H]3C[C@@H]2[C@@H]1[C@H]3C(=O)N1CCC(Cc2ccccc2)CC1 (some centres undefined) | 0.46 | /
CCC(C)[C@@H](C(=O)Nc1ccc2c(c1)OCCO2)N1Cc2ccccc2C1=O (some centres undefined) | 2.38 | -0.62
O=C(COC(=O)c1c(-c2ccccc2)c(-c2ccccc2)nc2ccccc12)c1cccc([N+](=O)[O-])c1 | / | -6.98
(listing goes on)
SMILES | HIV TAR-Tat | CDC25B CDK2 inh
CCOC(=O)C1=C(C)NC2=C(C(=O)CC(C)(C)C2)C1c1cc(OC)ccc1OC (centres undefined) | -0.05 | 0.86
CC1=C(C(=O)OC(C)C)C(c2ccc(F)cc2)c2c(nc(SCC(C)C)[nH]c2=O)N1 (centres undefined) | 1.5 | -0.42
Cc1c(C(=O)CN2C(=O)COc3ccccc3C2=O)oc2ccc(F)cc12 | -0.86 | -3.1
O=C1CCSc2ccc(S(=O)(=O)N(Cc3cccs3)C3CCCC3)cc2N1 | 0.95 | /
Cc1cc(Nc2ccc(N3CCN(S(C)(=O)=O)CC3)cc2)n2nc(-c3ccco3)nc2n1 | 1.74 | 2.76
CCOC(=O)C1C(=O)Nc2nc3ccccc3n2C1C(C)C (centres undefined) | -1.29 | -1.96
O=C(Nc1ccc(Br)cc1F)c1ncoc1-c1ccco1 | 1.23 | /
CC1=C(c2ccccc2)S(=O)(=O)NC1=NCc1ccco1 | -1.88 | -1.71
COc1cc(OC)c(NC(=O)CCS(=O)(=O)c2ccc3c(c2)CC(=O)N3C)cc1Cl | 1.45 | /
Cc1nc(N2CCCC2)ncc1C(=O)NCCc1cccs1 | 0.52 | /
CC(C)CC(NC1CCS(=O)(=O)C1)C(=O)O (centres undefined) | -0.47 | -0.85
COc1ccc(S(=O)(=O)NCc2c(F)cccc2Cl)cc1OC | / | -1.82
CC(C)NC(=O)c1ccc2c(c1)ncn2CCNC(=O)NCc1ccco1 | -0.94 | /
COc1cc(NC(=S)Nc2ccc3c(c2)OCCO3)cc(OC)c1OC | / | 0.41
O=S1(=O)N=CNc2ccc(S(=O)(=O)NC3CC3)cc21 | -0.83 | /
O=C(NC(Cc1ccc([N+](=O)[O-])cc1)C(=O)NCc1ccco1)OCc1ccccc1 (centres undefined) | / | -1.47
CC1CCN(C(=O)CSc2nc(-c3ccc(F)cc3)nc3cc(=O)[nH]n23)CC1 | 0.5 | /
O=C(Nc1ncc2c(n1)CC(c1cccc(Cl)c1)CC2=O)c1ccccc1 (centres undefined) | 0.4 | -2.1
O=S1(=O)C[C@H](NCc2ccc(F)cc2)[C@@H](S(=O)(=O)c2ccccc2)C1 | -1.28 | -1.74
COc1cc2c(cc1OC)N1C(=O)CC(OCC(=O)O)C3C4CC5(CCN5C(=O)C4=O)C2C31 (centres undefined) | -0.07 | -0.32
CC1CCCC(C)N1c1nnc(NC(=O)Nc2ccccc2Cl)s1 (centres undefined) | 1.94 | 0.99
COc1nc(-c2ccccc2)cc(-c2ccc(F)cc2)c1C#N | / | -0.98
Cc1ccc2c(=O)cc(C(=O)N(Cc3cccs3)C3CCS(=O)(=O)C3)oc2c1 (centres undefined) | 0.99 | -2.4
CCN1CCN(S(=O)(=O)c2c(C)[nH]c(C)c2C(=O)N2CCCCC2)CC1 | 1.22 | /
Cc1c(C(=O)NCCN2CCOCC2)oc2ccc(S(=O)(=O)N3CCCC3)cc12 | / | -1.16
COc1ccc2c(c1)C1OCCC1C(c1ccco1)N2 (centres undefined) | / | -0.58
CCc1nnc(NC(=O)CSc2nnc(Cc3cccn3C)n2-c2ccc(Cl)cc2)s1 | 0.48 | -1.1
O=C(CN1C(=O)COc2ccc(C(=O)N3CCCC3)cc21)NCc1cccnc1 | 1 | /
Cc1ccc(C(=O)Nc2nc3ccc4nc(C)sc4c3s2)cc1 | / | -1.31
CCCN1CCN(CCCNC(=O)C2=C(C)C(=O)OC23CCN(S(C)(=O)=O)CC3)CC1 | -0.39 | /
